Autofluor counter: compound fluorescence in toxin protease inhibitor counterscreen; compound autofluorescence counterscreen, microsphere flow cytometry; active compounds read high; fluorescence intensity (test concentration not listed); 360,000 compounds, 3.1% hits; AID 624483;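 active = at least 3 SD above the mean of all compounds, about 16000 in these data; inconclusive = too few beads counted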;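 note: 100 nL of 1 mM stock went into each well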
RN4220 kill: kills Staphylococcus aureus RN4220. 330,000 compounds, 0.33% hits. AID 1259311. inhibition, % (concentration not given with the values). S. aureus RN4220 growth, OD600, 16 h;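 active = z-score of -3 or lower and OD600 up to 0.18 on both plates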;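 note: plate controls were untreated cells for no effect and reference antibiotic for full effect; stock transfer was 100 nL into about 80 µL; one replicate is shown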
BJeLR lethal: BJeLR cell viability loss; BJeLR (HRASV12) viability, CellTiter-Glo ATP luminescence, 48 h; reference of the scale not given here; inhibition, % (no concentration beside the values); 300,000 compounds, 0.17% hits;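 active = replicate mean above 50%; inconclusive = above 50% but judged a plate artefact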;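 note: 50 nL library stock added to about 25 µL; numbers are from one replicate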
Sa ugtP lethal: compounds lethal to S. aureus RN4220 ugtP deletion mutant. OD600 growth, 16 h; some inactives read as strong as hits. growth inhibition, % (concentration not given with the values). 330,000 compounds, 0.54% hits;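 active = z-score under -3 and OD600 up to 0.15 on both plates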;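 note: plate controls were untreated wells for no effect and antibiotic for full effect; wells of about 80 µL received 100 nL stock; the first replicate is given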
Mtb hypoxia rep: reduces hypoxia-regulated biosensor signal in M. tuberculosis. M. tuberculosis hypoxia-regulated fluorescent reporter, fluorescence. fluorescence inhibition, % (concentration not given with the values). 300,000 compounds, 0.1% hits;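 active = 35 to 45% if threefold the growth effect, above 45% if 1.5-fold the growth effect; inactive = the rest, general growth blockers included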;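 note: wells of about 50 µL received 100 nL stock; 0% = vehicle wells and 100% = reference inhibitor wells; whole bacteria with a GFP reporter of the hypoxia response; strong numbers were not always called active; many hits fall short of the cut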
PrP 5UTR inh: inhibition of PrP 5' UTR reporter expression. cell-based PrP 5' UTR mRNA reporter, plate reader. inhibition, % (no concentration beside the values). 340,000 compounds, 0.35% hits. AID 488862;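 active = every replicate at 50% or more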;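 note: 0 = median of the neutral control wells; tested in H4 reporter cells; numbers are from one replicate; inactives centre near -14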
Mtb hypoxia rep growth: second read-out of Mtb hypoxia rep, no call of its own (marks repeat the call); growth inhibition, %; measured here: M. tuberculosis growth (absorbance);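 0% = vehicle and 100% = reference antibiotic; read after six days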
* = called active by the depositor; ? = inconclusive; . = no result given; & = joins results of further samples.

Start of the data: the first four entries (preview)
item	compound	Mtb hypoxia rep growth	BJeLR lethal	Sa ugtP lethal	PrP 5UTR inh
1	COc1cccc(-c2nc(CS(=O)(=O)CC(=O)NC3CCCC3)c(C)o2)c1	11	12	0	-17
2	CC(C)CC(OC(=O)c1nsc(Cl)c1Cl)C(=O)NCC1CCCO1 (stereo not given)	-9	-3	-1	-25
3	NC1=C(c2ccccc2)C(=O)NC1=O	4	6	0	-12
4	O=C(Nc1ccon1)c1sc2cc(F)ccc2c1Cl	.	.	-5	-40

item	Autofluor counter	RN4220 kill	Mtb hypoxia rep
1	5003	-1.5	2
2	5475	2.9	-11
3	3772	1.5	3
4	2482	3.2	.

All compounds of this part, from the first entry:
item	compound	Mtb hypoxia rep growth	BJeLR lethal	Sa ugtP lethal	PrP 5UTR inh
1	COc1cccc(-c2nc(CS(=O)(=O)CC(=O)NC3CCCC3)c(C)o2)c1	11	12	0	-17
2	CC(C)CC(OC(=O)c1nsc(Cl)c1Cl)C(=O)NCC1CCCO1 (stereo not given)	-9	-3	-1	-25
3	NC1=C(c2ccccc2)C(=O)NC1=O	4	6	0	-12
4	O=C(Nc1ccon1)c1sc2cc(F)ccc2c1Cl	.	.	-5	-40
5	O=c1ccc(-c2ccc(S(=O)(=O)N3CCN(c4cccc(Cl)c4)CC3)o2)n[nH]1	-5	2	13	-13
6	COc1ccc(S(=O)(=O)NCCc2nnc3ccc(SCC(=O)Nc4nc(C)cs4)nn23)cc1	4	-23	7	-3
7	NC(=S)N/N=C/c1coc2c(ccc3ccccc32)c1=O	.	4	.	-1
8	COc1ccc(C=NNc2nc(Nc3ccccc3)nc(N3CCCCC3)n2)c(OC)c1	13	.	-8	.
9	Cc1ccccc1N1CCN(S(=O)(=O)C[C@]23CCC(CC2NC(=O)C(N)CCS(C)(=O)=O)C3(C)C)CC1 (stereo not given in full)	16	.	2	.
10	CN(/C=C/C(=O)C(F)(F)F)Cc1ccccc1	-1	5	-6	14

item	Autofluor counter	RN4220 kill	Mtb hypoxia rep
1	5003	-1.5	2
2	5475	2.9	-11
3	3772	1.5	3
4	2482	3.2	.
5	6976	6.3	-3
6	2286	6.0	15
7	10393	.	.
8	.	7.1	12
9	.	1.3	5
10	24286*	0.5	-6

New compounds follow.
item	compound	Mtb hypoxia rep growth	BJeLR lethal	Sa ugtP lethal	PrP 5UTR inh
11	O=C(NCCN1CCOCC1)c1cccc(S(=O)(=O)NCc2ccccc2)c1	7	-7	5	-13
12	O=C(Cc1c[nH]c2ccccc12)NC1(C(=O)NC2CCCC2)CCCCC1	9	-2	6	-2
13	COC(=O)N(NC(=O)C(O)(c1ccccc1)c1ccccc1)c1ccc(C)cc1	4	0	3	-7
14	CCOC(=O)c1oc2cc(O)c(CC)cc2c(=O)c1-c1ccc2c(c1)OCCO2	12	5	15	-10
15	CCOc1ccc(C(=O)Nc2cccc(C(=O)O)c2)cc1Cl	7	3	10	-11
16	O=C1[C@@H]2[C@H]3CC[C@H](C3)[C@@H]2C(=O)N1O	0	2	1	-10
17	CSCCC(NC(=O)COc1ccccc1)C(=O)OCc1ccc(Cl)cc1 (stereo not given)	0	.	-3	-13
18	CCOC(=O)c1sc(NC(=O)c2ccco2)nc1-c1ccccc1	0	5	-7	-28
19	C/C=N/NC(=O)c1cc(Br)ccc1O	.	14	.	14
20	COc1cccc(CNC(=O)C2CCCN(S(=O)(=O)c3cnc[nH]3)C2)c1 (stereo not given)	.	1	9	5

item	Autofluor counter	RN4220 kill	Mtb hypoxia rep
11	7299	-1.7	1
12	4438	0.7	14
13	2153	0.6	9
14	5858	3.8	13
15	4867	5.8	3
16	4019	2.8	9
17	6353	3.5	-5
18	4180	-0.4	4
19	2477	.	.
20	5875	3.2	.

(more compounds)
item	compound	Mtb hypoxia rep growth	BJeLR lethal	Sa ugtP lethal	PrP 5UTR inh
21	CCOC(=O)N1CCC(NC(=O)c2cc(S(=O)(=O)N3CCC4(CC3)OCCO4)ccc2F)CC1	5	4	7	-42
22	O=C(CCNC(=O)c1ccccc1)NNC(=O)c1ccc(F)cc1	3	.	10	-29
23	Cc1ccc(S(=O)(=O)NCC(=O)N2CCCC2)cc1	5	-5	-5	-4
24	COc1ccc(/C=N/NC(=O)c2cccc(O)c2)cc1Cn1nc(C)c([N+](=O)[O-])c1C	.	2	.	-25
25	CC1(NC(=O)Nc2cccc(Br)c2)CCS(=O)(=O)C1 (stereo not given)	13	.	-2	-14
26	CCCNC(=O)Cn1c(=CC(=O)C(C)(C)C)sc(=Cc2ccc(-c3ccc([N+](=O)[O-])cc3)o2)c1=O	-9	.	-19	.
27	CC(=O)Nc1cccc(C)c1	11	.	3	-8
28	CCOc1cc(C2C(C(=O)OC)=C(C)N=C3SCCC(=O)N32)ccc1OC(C)=O (stereo not given)	4	-9	2	-18
29	COCCn1c(-c2ccccc2)nc2oc3cc(OC)ccc3c(=O)c2c1=O	1	3	-10	-20
30	CCS(=O)(=O)c1ccc(N)cc1	1	4	0	-23

item	Autofluor counter	RN4220 kill	Mtb hypoxia rep
21	11134	1.5	-1
22	4213	1.4	6
23	16845*	-0.9	-1
24	8199	.	.
25	3483	1.2	12
26	.	2.0	-5
27	5875	2.4	12
28	2484	3.3	9
29	8045	6.1	6
30	4915	2.1	1

(list continues)
item	compound	Mtb hypoxia rep growth	BJeLR lethal	Sa ugtP lethal	PrP 5UTR inh
31	C[n+]1cccc(C(=O)Nc2ccccc2)c1	9	6	0	-7
32	O=C(Nc1cccnc1)Nc1cccc([N+](=O)[O-])c1	15	1	10	-22
33	CC(C)CNC(=O)COc1cccc(C(=O)NCc2ccccc2)c1	12	-5	-6	-3
34	CC(C)CNC(=O)c1ccccc1NC(=O)c1ccc(CN2CCOCC2)cc1	6	2	8	-26
35	C=CCC(CC(=O)NCCO)C(=O)NC(COC(=O)C(CC=C)CC(=O)OC(C)(C)C)Cc1ccccc1 (stereo not given)	6&9	.	-2&2	.
36	C/C(=N\NC(=O)c1cccc(S(=O)(=O)N2CCCC2)c1)c1ccccc1F	.	-1	.	-41
37	Cc1cc(C(=O)CSc2ncn[nH]2)c(C)n1-c1cccc(S(=O)(=O)N2CCOCC2)c1	6	-4	7	-25
38	Cc1ccccc1NC(=S)N1CCN(c2ccccc2Cl)CC1	12	-1	13	-16
39	CC(=O)Nc1ccc(C(=O)CN2C(=O)NC3(CCCCCC3)C2=O)c(F)c1	3	.	1	-9
40	COCCNC(=O)CCn1nc(-c2ccc(Cl)cc2)c2ccccc2c1=O	9	3	10	-15

item	Autofluor counter	RN4220 kill	Mtb hypoxia rep
31	3641	2.9	2
32	3634	-8.1	9
33	1965	-1.0	3
34	12891	2.5	12
35	.	3.6&3.6	-6&19
36	?	.	.
37	2144	7.9	12
38	3528	2.1	7
39	3319	-0.5	3
40	3661	3.4	9

Going on with the list:
item	compound	Mtb hypoxia rep growth	BJeLR lethal	Sa ugtP lethal	PrP 5UTR inh
41	COC(=O)c1sccc1NC(=O)Nc1cc(C)cc(C)c1	3	.	2	-20
42	CCOC(=O)C1CCCCN1Cc1cccc(OCc2ccccc2)c1 (stereo not given)	11	-1	27	-29
43	O=C(c1ccccc1F)N1CCN(Cc2cccc(Cl)c2)CC1	10	3	2	5
44	CCc1nc2ccc(C)cc2c(C(=O)NC2CCCCC2C)c1C (stereo not given)	6	-5	-6	-14
45	O=c1[nH]ncc2c3ccccc3n(Cc3ccccc3)c12	5	2	-2	1
46	C=CCc1c(C)nn(CC(=O)O)c1-c1ccccc1	.	0	1	-19
47	O=C(NC1CCCCC1)C1CCC(=O)N(Cc2cccc(C(F)(F)F)c2)C1 (stereo not given)	4	-6	4	-7
48	CCc1nnc(NC(=O)CCN2C(=O)CCC2=O)s1	-2	1	-1	-32
49	CCOC(=O)N1CCN(C(=O)COc2ccc(Br)cc2Cl)CC1	14	-4	3	-19
50	COc1ccc(-n2nc(C(=O)Nc3cc(OC)c(OC)c(OC)c3)c3ccccc3c2=O)c(OC)c1	-4	-3	3	-21

item	Autofluor counter	RN4220 kill	Mtb hypoxia rep
41	6790	0.7	2
42	4066	2.0	21
43	9563	0.8	2
44	18786*	3.2	10
45	3113	3.0	7
46	5202	2.3	.
47	6602	0.4	0
48	6945	7.3	-4
49	20543*	1.8	6
50	2474	4.1	17

Further compounds follow:
item	compound	Mtb hypoxia rep growth	BJeLR lethal	Sa ugtP lethal	PrP 5UTR inh
51	CCC(C)(C)NC(=O)C(NS(=O)(=O)c1cccs1)c1ccccc1 (stereo not given)	-7	-9	8	-9
52	CCOC(=O)C(NC(=O)c1ccccc1)(OCc1ccccc1)C(F)(F)F (stereo not given)	1	-2	-4	-4
53	CCCCn1c(N)c(N(CC)C(=O)c2ccc(N(C)S(=O)(=O)c3ccc(C)cc3)cc2)c(=O)[nH]c1=O	-1	0	9	-23
54	COc1ccc(CNC(=O)CSc2nnnn2C)cc1OC	-2	-5	3	-9
55	COc1ccc(-n2c(COc3ccc(C)cc3)nnc2SCC(=O)O)cc1	.	10	.	-6
56	C/C(=N\NC(=O)Cc1ccc(O)cc1)c1cccnc1	.	2	.	4
57	CCCCN(CCCNC(=O)Cn1nc(CC)n2c(cc3sc(C)cc32)c1=O)Cc1ccccc1	-2	-8	7	-17
58	COc1cccc(/C=N/NC(=O)c2nnn(-c3nonc3N)c2-c2cccs2)c1	.	17	.	-22
59	O=S(=O)(Nc1cc(C(F)(F)F)ccc1N1CCOCC1)c1ccc2ccccc2c1	3	9	-2	-3
60	COc1ccc(N(CC(=O)NCCSC(C)(C)C)S(C)(=O)=O)c(OC)c1	2	7	7	-15

item	Autofluor counter	RN4220 kill	Mtb hypoxia rep
51	3254	2.7	1
52	1978	32	7
53	5959	4.2	11
54	4529	-0.5	10
55	3235	.	.
56	5694	.	.
57	4444	0.9	8
58	5730	.	.
59	10530	-8.3	1
60	12197	7.6	15

Continued.
item	compound	Mtb hypoxia rep growth	BJeLR lethal	Sa ugtP lethal	PrP 5UTR inh
61	Cc1c(Cl)cccc1NC(=O)COC(=O)CN1C(=O)NC(C)(C)C1=O	13	3	-2	-9
62	CC(=NNC(=O)c1cccs1)C(C)(C)C	-1	.	2	.
63	COc1cc(NS(C)(=O)=O)c(OC)cc1NC(=O)c1ccccc1	12	-12	5	-21
64	CC1CC(CCC(=O)NC(=S)Nc2ccc(Cl)cn2)C(=O)O1 (stereo not given)	4	-3	-1	-11
65	CCCN(CCC)CCN1C(=O)C2C(C(=O)Nc3cccc(SC)c3)C3C=CC2(O3)C1C(=O)NC1CCCCC1 (stereo not given)	0	2	-4	-13
66	O=C(NCCN1CCOCC1)NC1(C(F)(F)F)Oc2ccccc2O1	-2	-4	-1	-33
67	CC(OC(=O)c1ccncc1)C(=O)Nc1ccc([N+](=O)[O-])cc1Cl (stereo not given)	1	2	9	-15

item	Autofluor counter	RN4220 kill	Mtb hypoxia rep
61	4543	0.8	-4
62	.	-0.8	1
63	6908	2.6	12
64	2634	8.9	3
65	3728	0.2	4
66	3674	2.1	1
67	4602	4.3	6

Along the list, as entered above.
Nos. 25 to 34 in Mtb hypoxia rep: 12, -5, 12, 9, 6, 1, 2, 9, 3, 12
